Sa growth inh: inhibitors of Staphylococcus aureus growth at 42 °C. S. aureus RN4220 growth, OD600, 20 h; hits give low values. relative growth, % (test concentration not listed). actives 0.53% (n = 170,000). AID 720641;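 active = growth at 42 °C up to 50% and 20 or more points under that at 30 °C, or under 10% at both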;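 also: 300 nL library stock went into each well; scaled to the means of positive and negative controls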
GIV-Gai inh: blocks GIV peptide binding to rat Galpha-i3 | P08753 | percent of control (FP), % (concentration not given with the values) | Galpha-i3/FITC-GIV peptide fluorescence polarization, 90 min; hits give low values; scaled: aluminum fluoride 0%, vehicle 100% | actives 0.42% (n = 210,000);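 active = replicate mean at 85% of control or lower, very high polarization wells dropped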;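 also: wells of about 15 µL received 100 nL stock; the first replicate is given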
Target sequence (P08753 whole entry, looked up): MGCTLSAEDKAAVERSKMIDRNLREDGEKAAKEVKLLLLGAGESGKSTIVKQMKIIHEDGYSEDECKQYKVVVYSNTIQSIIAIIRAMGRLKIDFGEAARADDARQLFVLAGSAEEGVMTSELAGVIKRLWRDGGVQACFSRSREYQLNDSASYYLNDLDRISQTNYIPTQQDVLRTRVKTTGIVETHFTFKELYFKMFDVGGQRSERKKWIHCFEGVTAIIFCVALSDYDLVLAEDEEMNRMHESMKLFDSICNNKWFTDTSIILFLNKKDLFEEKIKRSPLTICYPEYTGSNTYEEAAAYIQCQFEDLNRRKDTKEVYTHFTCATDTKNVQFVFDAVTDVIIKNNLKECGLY
HCMV UL50-53 inh: disrupts HCMV UL50-UL53 complex binding | HTRF UL50-UL53 interaction, normalized percent inhibition | inhibition, % (no concentration beside the values) | actives 0.15% (n = 190,000) | AID 1918969;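 active = both replicates at 50% or more, plus weaker picks with an unusually low signal ratio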;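 also: stock transfer was 100 nL into about 20 µL; 0% = negative control wells and 100% = wells with untagged competitor protein; inactives centre near -12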
Sa growth inh second temp: further read-out of Sa growth inh, marked with its call; relative growth, %; measured here: growth at 30 °C;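 optical density after 20 h as mean of two plates; 100% = untreated growth and lower means inhibition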
Active calls of the source: *; / = no result given; & = joins results of further samples.

The first 3 entries, to show the layout:
SMILES,Sa growth inh,Sa growth inh second temp,GIV-Gai inh,HCMV UL50-53 inh
O=C(CSc1nnc(CNC(=O)c2ccccc2F)o1)Nc1ccc(F)cc1F,102.6,84.7,98.0,/
CCCCN(Cc1nnc(-c2ccccc2)o1)c1ccccc1,96.1,80.9,103.0,-10.1
CCOc1cc(C2C(C(=O)OC(C)CC)=C(C)NC3=C2C(=O)CC(c2ccc(OC)cc2)C3)ccc1OC(C)=O (stereo not given),/,/,100.2,-7.7

Main list, from the first entry:
SMILES,Sa growth inh,Sa growth inh second temp,GIV-Gai inh,HCMV UL50-53 inh
O=C(CSc1nnc(CNC(=O)c2ccccc2F)o1)Nc1ccc(F)cc1F,102.6,84.7,98.0,/
CCCCN(Cc1nnc(-c2ccccc2)o1)c1ccccc1,96.1,80.9,103.0,-10.1
CCOc1cc(C2C(C(=O)OC(C)CC)=C(C)NC3=C2C(=O)CC(c2ccc(OC)cc2)C3)ccc1OC(C)=O (stereo not given),/,/,100.2,-7.7
COc1ccc(N=Cc2sc3ccccc3c2Cl)cc1,94.3,99.5,/,26.8
CC(C)NC(=O)CC1Sc2ccccc2NC1=O (stereo not given),72.3,95.2,100.6,13.8
N#Cc1c[nH]c2ccc(N3C(=O)c4ccccc4C3=O)cc12,94.9,86.5,108.1,-34.6
CCN(CC)c1cc(C)c2cc(NC(=O)c3cc(OC)cc(OC)c3)ccc2n1,91.8,87.5,103.8,-9.4
C=CCSc1nnc(NC(=O)c2oc3ccccc3c2C)s1,98.3,88.2,/,-38.6
O=C(/C=C/CC(=O)OC1CCCC1)OC1CCCC1,77.3,95.5,/,-12.4
CCC(Sc1nc2ncccc2[nH]1)C(=O)N(CC)c1cccc(C)c1 (stereo not given),109.5,83.2,101.8,/
O=C(NCc1ccco1)C1CCN(S(=O)(=O)Cc2ccccc2)CC1,74.8,77.2,106.4,4.0
Cc1ccc(CNC(=O)CCNS(=O)(=O)c2ccc3c(c2)oc(=O)n3C)cc1,97.2,106.1,115.3,-9.5
CCOC(=O)N1CCN(C(=O)c2cc(Nc3ccc(OC)cc3OC)nc3ccccc23)CC1,87.7,85.7,97.1,/
O=C1CCCc2cc(S(=O)(=O)NCC3CCC(C(=O)Nc4ccccc4F)CC3)ccc2N1 (stereo not given),74.8,87.2,97.9,/
NC(=O)COc1ccc2ccc(=O)oc2c1,83.8,56.7,99.1,-9.3
O=S(=O)(c1ccc(Br)cc1)N1CCn2c(nc3ccccc32)C1,94.6,95.4,104.1,-16.3
COc1ccccc1Nc1c2c(nc3ccc(NC(=O)c4ccc(OC)c(OC)c4)cc13)CCCC2,109.6,52.2,105.9,-39.5
Cn1nc(C(=O)Nc2ccccc2C#N)c2c1-c1ccccc1SC2,117.9,96.2,99.6,-25.0
Cc1cc(C)c(NC(=O)Cn2nnc(C(=O)NCc3cccs3)c2N)c(C)c1,96.6,85.0,97.8,2.9
CCOC(=O)c1c(N(C)C)ccc(C2C=CNC(=O)N2)c1C (stereo not given),89.5,85.1,104.8,-48.3
Cc1ccc(-n2c(C)cc(C(=O)CC#N)c2C)cc1C,90.4,96.1,/,-1.1
CCSc1ncc(Cl)c(C(=O)Nc2ccc(S(=O)(=O)N3CCCCC3CC)cc2)n1 (stereo not given),100.6,93.5,101.3,-3.4
N#CCc1nc(-c2ccccc2)no1,80.5,66.0,/,-14.0
CCn1cc(S(=O)(=O)c2ccc(C)cc2C)c(=O)c2cc(F)c(N3CCCC3)cc21,110.3,77.2,104.3,/
COc1ccc(C2=NN(C(=O)CCC(=O)O)C(c3ccccc3F)C2)cc1OC (stereo not given),87.3,67.4,102.8,-36.5

More compounds follow.
SMILES,Sa growth inh,Sa growth inh second temp,GIV-Gai inh,HCMV UL50-53 inh
CCC1CN=C(Nc2cccc(C)c2)S1 (stereo not given),84.1,87.0,/,-7.9
CCOC(=O)c1c(C)[nH]c(C(=O)NCC(c2ccco2)N2CCCCC2)c1C (stereo not given),101.9,81.6,/,-33.6
CCOC(=O)C1=C(C)NC(=O)NC1c1c(O)ccc2ccccc12 (stereo not given),87.7,73.1,104.3,9.8
O=C(CSc1nc2c(c(=O)[nH]1)CN(Cc1ccccc1)CC2)Nc1ccc(F)cc1,/,/,99.4,-4.9
CCCC1CCC(c2ccc(/C(N)=N/O)cc2)CC1 (stereo not given),112.5,86.4,/,-4.5
COc1ccc(C(=O)C[n+]2ccc3c(c2)nnn3C)cc1,114.0,92.2,102.9,/
CCOc1ccc(CCNC(=O)Cn2nnc(-c3ccc(C(F)(F)F)cc3)n2)cc1OCC,107.3,91.5,102.0,-5.2
CCOC(=O)N1CCC(NC(=O)CN2C(=O)COc3ccc(C(C)(C)C)cc32)CC1,94.3,94.9,97.6,2.8
CC(C)=NNC(=S)Nc1ccc(Cl)cc1,71.4,21.0,104.1,-29.2
CCC(=O)N1CCc2cc(Br)cc(S(=O)(=O)CCC(=O)NCc3ccc(F)cc3)c21,102.5,86.9,104.3,3.7
CCCCn1cnc2cc(NCc3ccc(C)cc3)ccc21,63.1,0.7,105.2,/
COc1ccc(-n2c(SCC(=O)N(C)Cc3cccs3)nc3ccccc32)cc1,98.8,92.0,/,-30.3
CSc1cccc(NC(=O)CCS(=O)(=O)c2ccc3nc(C)sc3c2)c1,86.2,80.5,101.4,/
Cc1ccc2[nH]c(=O)c3cc(C(=O)NC(C)C)sc3c2c1,91.4,82.3,129.7,/
Cc1ccc(C(=O)CSc2nc(C)cc(C)c2C(=O)Nc2cccc(C)c2)cc1,96.2,94.9,97.3,-15.7
COCCn1c(SCc2nc3ccccc3nc2C)nc2ccccc21,97.0,94.0,/,-30.1
CC(=O)Oc1ccc(C2C(C(=O)OCCOc3ccccc3)=C(C)NC3=C2C(=O)CC(c2ccccc2)C3)cc1 (stereo not given),/,/,99.9,-17.1
O=S(=O)(c1ccc(Br)cc1)N1CCCC(c2nc(-c3cccc(F)c3)no2)C1 (stereo not given),/,/,104.9,-29.7
CCn1c(=O)c2c(C(=O)Nc3ccc(OC)cc3OC)cc(=O)n(CC)c2n(C)c1=O,/,/,105.9,-34.8
Cc1nnsc1C(=O)Oc1cccnc1,103.5,85.3,94.6,-19.5
CCOc1ccccc1NC(=O)CCS(=O)(=O)c1ccc2c(c1)oc(=O)n2C,111.2,78.5,103.2,/
O=C(COc1ccccc1)Nc1ccc(S(=O)(=O)Nc2ncccn2)cc1,83.6,92.3,/,-21.1
O=C(CN1C(=O)c2ccccc2C1=O)c1ccc(C(F)(F)F)cc1,93.4,88.1,106.6,-44.8
CCOC(=O)c1cn(C(=O)c2ccco2)nc1C(F)(F)F,98.3,91.4,100.8,-0.7
CN(C(=O)COC(=O)Cn1nnc(-c2ccccc2)n1)C1CCCCC1,86.1,94.5,/,3.3

Other entries follow.
SMILES,Sa growth inh,Sa growth inh second temp,GIV-Gai inh,HCMV UL50-53 inh
CCOc1ccc(N2C(=O)NC(=O)/C(=C\c3cc(OC)c(OC)c(OC)c3)C2=O)cc1,/,/,114.9,-13.4
c1ccc(NC2CCCCC2)cc1,103.8,103.2,104.4,0.5
Cc1cc(C)c(N(CC(O)Cn2cc(/C=N/O)c3ccccc32)S(C)(=O)=O)c(C)c1 (stereo not given),114.7,90.5,103.9,9.8
CCOc1ncccc1C(=O)N(C)CC1COc2ccccc2O1 (stereo not given),98.4,96.3,/,-15.4
CCn1cc(-c2cc(C(=O)O)on2)cn1,96.7,90.3,102.1,-11.4
CC(C)C(SCc1ccccc1)C(=O)NC(N)=O (stereo not given),99.8,101.3,/,-4.2
COc1cccc(NC(=O)CSC2=Nc3ccccc3C3=NC(C(C)C)C(=O)N23)c1 (stereo not given),105.5,78.8,98.9,/
C=CCn1c(SCC(=O)c2ccccc2)nc2sc3c(c2c1=O)CCC3,/,/,100.1,-12.1
COc1cc(NC(=O)N2CCN(c3cc(N4CCOCC4)nc(C)n3)CC2)cc(OC)c1,/,/,105.3,5.1
CC1CCCCN1Cc1c(O)ccc2cc(-c3nc4ccccc4n3C)c(=O)oc12 (stereo not given),90.9,97.2,118.4,-57.2
COc1ccc(-n2c(SCC(=O)Nc3ccc(C)cc3)nc3n[nH]c(C)c3c2=N)cc1,106.0,96.3,/,2.4
COc1ccc(C2NC(=O)N(C)C3=C2C(=O)N(c2ccc(Br)cc2)C3)cc1 (stereo not given),118.4,98.2,105.4,/
CCc1nnc2c3ccccc3nc(N3CCN(c4cc(C)ccc4C)CC3)n12,106.8,79.8,111.1,/
O=C(Oc1ccccc1O)c1ccccc1,92.4,76.3,103.6,-13.0
Cc1ccn2c(Nc3c(C)cccc3C)c(-c3ccc(Cl)s3)nc2c1,110.0,85.1,103.0,-6.4
CCN1CCCC1CNC(=O)Nc1ccc(Cl)c(Cl)c1 (stereo not given),0.6*,0.1*,/,-17.8
CC1CCCC(NC(=O)c2n[nH]c(=O)c3ccccc23)C1C (stereo not given),96.8,96.2,102.3,3.5
CCC(C)NC(=O)C1CCC(CNS(=O)(=O)c2cccc3nsnc23)CC1 (stereo not given),102.1,89.6,99.7,-125.7
COCCNC(=O)c1nn(-c2ccc(Cl)cc2)nc1CO,93.4,91.4,96.5,-17.3
CC1CCCC(C)N1NC(=O)c1ccc2c(c1)SC1=NS(=O)(=O)CCN12 (stereo not given),84.3,86.7,/,-8.7
Cc1ccc(NC(=O)CN2CCCN(Cc3cc(C)ccc3C)S2(=O)=O)c(Cl)c1,101.0,91.2,98.8,/
CN(C1CCCCC1)S(=O)(=O)c1ccc(N2CCCCS2(=O)=O)cc1,/,/,107.0,5.1
CCOC(=O)c1ccc(NC(=O)c2cnc(N3CCCC3)nc2C)cc1,92.9,93.8,106.9,/
O=C(Cc1ccc(S(=O)(=O)N2CCOCC2)s1)Nc1ccccc1Br,79.6,99.0,/,-29.8
Cc1cc2nc(N(C)C)c3ccccc3n2n1,91.3,94.0,/,-15.4

Quoted from the listing:
Sa growth inh second temp, `CC(C)C(SCc1ccccc1)C(=O)NC(N)=O` (stereo not given) → 101.3
HCMV UL50-53 inh, `Cc1cc(C)c(N(CC(O)Cn2cc(/C=N/O)c3ccccc32)S(C)(=O)=O)c(C)c1` (stereo not given) → 9.8
Sa growth inh, `COc1ccc(C2NC(=O)N(C)C3=C2C(=O)N(c2ccc(Br)cc2)C3)cc1` (stereo not given) → 118.4
GIV-Gai inh, `COc1cc(NC(=O)N2CCN(c3cc(N4CCOCC4)nc(C)n3)CC2)cc(OC)c1` → 105.3
Sa growth inh second temp, `CCC(C)NC(=O)C1CCC(CNS(=O)(=O)c2cccc3nsnc23)CC1` (stereo not given) → 89.6

(list continues)
SMILES,Sa growth inh,Sa growth inh second temp,GIV-Gai inh,HCMV UL50-53 inh
COC(CN(C)C(=O)c1c[nH]c2ccc(S(=O)(=O)Nc3ccccc3F)cc2c1=O)OC,100.5,98.4,103.1,-13.6
CCCNC(=O)C1=NS(=O)(=O)c2ccccc2N1,98.3,94.0,106.7,-2.0
O=C(O)C1CCC(CNCc2ccncc2)CC1 (stereo not given),88.9,87.2,103.4,/
NCC12CC3CC(C1)CC(C(=O)O)(C3)C2,85.2,87.7,102.9,-35.5
Oc1ccccc1C1=NNC(O)(C(F)(F)F)C1 (stereo not given),76.1,19.1,95.3,/
CCOc1c(Br)cc(C2C=C(C(=O)O)Nc3ncnn32)cc1OC (stereo not given),118.4,91.3,93.1,-2.6
Cc1cc(C)nc(N2CCC(NC(=O)Cc3cccs3)CC2)n1,102.1,85.3,102.5,-13.4
COc1ccccc1N1CCN(CCCCNC(=O)c2ccc3ccccc3c2)CC1,/,/,100.1,-9.8&-40.9
CCc1nn(CC(=O)OC)c(=O)c2cc3sc(C)cc3n12,103.2,89.6,107.0,/
CCC(C)(C)C(=O)Nc1nnc(C(F)(F)F)s1,101.9,49.8,/,2.0
CN1CCN(Cc2c(O)ccc3cc(-c4ccc(Cl)cc4)c(=O)oc23)CC1,100.0,99.7,146.8,/
CC(=O)OC[C@H]1OC=C[C@@H](OC(C)=O)[C@@H]1OC(C)=O,95.9,89.6,106.7,-9.9
COc1ccc(C(C(=O)Nc2ccc(C(C)C)cc2)N(Cc2ccco2)C(=O)c2cnccn2)cc1 (stereo not given),107.8,73.8,100.4,/
COc1cc(C=C2C(=O)N(C)C(=O)N(C)C2=O)ccc1OCCOc1ccc([N+](=O)[O-])cc1,/,/,105.4,-1.8
Cc1ccc(-c2nn3c(=O)c4ccccc4nc3c3ccccc23)cc1,101.2,87.0,100.8,/
CCc1ccc(OC(C)C(=O)Nc2cc(-c3ccc(C)cc3)no2)cc1 (stereo not given),70.4,70.5,95.5,-14.2
Cc1cc(C)n(CCc2nc3c4ccccc4nc(N4CCN(c5ccc(F)cc5)CC4)n3n2)n1,112.7,91.1,104.7,-11.0
CC(=O)N1CCN=C1SCc1ccccc1,83.4,83.3,102.4,/
CC(C)CCNC(=O)C1CCN(c2nc3ccc(Cl)cc3[nH]2)CC1,85.1,33.0,103.0,/
CN(C)S(=O)(=O)c1ccc2oc3nnc(SCC#N)n3c2c1,100.9,90.6,/,-2.2
N#CCOc1nc(-c2ccccc2)cc(-c2ccco2)c1C#N,110.8,81.8,105.2,28.6

Bioassay records deposited in PubChem by ICCB-Longwood Screening Facility, Harvard Medical School.
